# Calb biofilm kill: mixtures killing C. albicans biofilm | actives 0.02% (n = 120,000) | C. albicans biofilm persisters + clotrimazole, fluorescence viability; primary screen in compound mixtures of four per well | inhibition, % at 7.6 µM;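 active = inhibition above 30.3% in the primary screen of four-compound pools, then above 30% when the compound was retested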;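 note: compounds exposed to preformed 24 h biofilms for 48 h; the number belongs to the whole pool; some results filed as inactive read as strong as hits; inactives centre near 12; 0% = biofilm with clotrimazole alone and 100% = kill control; retested singly at about 60 µM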
#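 Test system: C. albicans CAF4-2 wild-type biofilms; buffer or medium: RPMI/MOPS medium, pH 7.0; schedule: 24 h biofilm formation, then 48 h compound exposure, 37 °C; detection: Alamar Blue fluorescence; measure: percent inhibition of biofilm viability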
# The depositor's hits bear a star; & = joins results of further samples.
SMILES,Calb biofilm kill
Cc1ccc(N=Cc2c(O)n(-c3nccs3)c(=O)c3ccccc23)cc1,8.1
O=c1oc2ccccc2c(NCCc2ccccc2)c1[N+](=O)[O-],-9.3
O=S(=O)(c1ccccc1)N1CCCC1c1cccs1 (centres undefined),12.7
Cc1cccc(OCC(=O)N/N=C/c2sc(=O)n(Cc3cccc(C(=O)O)c3)c2Cl)c1,12.8
COC(=O)N/N=C\c1cc(Br)ccc1OCc1ccccc1,8.3
Cn1ncc(Br)c1C(=O)NC(=S)N1CCN(c2ccccn2)CC1,17.5
Cc1cc(OCc2nc(-c3ccncc3)no2)cc(C)c1Cl,9.9
CC1CC2=C(NC(=S)NC2c2ccccc2F)/C(=C/c2ccccc2F)C1 (centres undefined),13.6
COc1ccc(/C=C(\NC(=O)c2cccs2)C(=O)Nc2ccccc2C)cc1OC,-17.6
CN(C)CCNC(=O)c1sc2cccc(F)c2c1Cl,7.7
Cc1ccc(C)c2c(SC(C)C(=O)NCc3ccco3)nc(-c3ccccc3)nc12 (centres undefined),11.4
COC(=O)C1CCCN1C(C(=O)NC1CCCCC1)c1ccc(Cl)cc1 (centres undefined),12.5
N/C(=N\c1nc2c(c(=O)[nH]1)CCC2)Nc1ccccc1,7.2
Cc1ccc(C)c(NC(=O)CCC(=O)N/N=C2/CC(=O)CC(C)(C)C2)c1,-18.6
Cc1ccccc1OCc1nnc(SCC(=O)O)n1Cc1ccccc1,9.5
Cc1cccc(-n2c(O)c(C=NCc3ccccn3)c3ccccc3c2=O)c1,14.9
Cc1c(Cl)cccc1NC(=S)N(C)CCC#N,12.9
CC(=O)Nc1ccc2nc(NC(=O)COc3ccccc3C)sc2c1,13.1
Cc1cccc(-c2ncc(CN3CCN(C4CCCC4)C(CCO)C3)cn2)c1 (centres undefined),13.7
CC(C)c1ccc(Nc2nnc(SCC(=O)Nc3ncc(S(=O)(=O)c4ccc([N+](=O)[O-])cc4)s3)s2)cc1,11.8
COCCn1c(CCC(=O)O)ccc1-c1cccs1,20.1
NC(=O)C1(N2CCCCC2)CCN(C2CC(=O)NC2=O)CC1 (centres undefined),12.2
COc1ccc(C2=NOC(C)(c3nnc(-c4ccc(F)cc4)o3)C2)cc1 (centres undefined),15.8
Cc1ccc(Cl)cc1NC(=O)Nc1cccs1,4.9
CCC(=O)Nc1nc(-c2ccccc2)ns1,14.8
CC1(C)S[C@@H]2[C@H](NC(=O)[C@H](N)c3ccc(O)cc3)C(=O)N2[C@H]1C(=O)O,10.8
CCOC(=O)c1c(O)cc(C)[nH]c1=O,17.6&16.0
Cc1ccccc1N=Nc1c(C)[nH]n(C(N)=S)c1=O,8.1
COc1ccc(C(=O)N[C@H](C(=O)OCc2cc(=O)oc3cc(C)ccc23)C(C)C)cc1,-3.8
O=C(c1ccc(F)cc1F)N1CCCN(c2nc(-c3ccccc3)ns2)CC1,33.3
CC(C)c1nc2sc3c(c2c(=O)n1N)CC(C)(C)OC3,5.7
CCc1nnc(NS(=O)(=O)c2ccc(NC(=O)/C=C/c3ccc(OC)cc3OC)cc2)s1,7.1
Cc1ccc(/C=C/C(=O)NCCCc2ccccc2)cc1,16.2
N=C1c2ccccc2CN1c1ccc(N2CCOCC2)c(S(=O)(=O)Nc2ccc(Cl)cc2)c1,9.3
Cc1cccc(-n2c(Cc3ccccc3)nnc2SCc2ccc([N+](=O)[O-])cc2)c1,13.3
COc1cc(OC)cc(N2CC(C)(C)C2=O)c1,9.5
O=C(CCSc1ccccc1)NC1CCCCCC1,4.4
OCc1ccnc(Cl)c1,17.1
O=C(COc1ccc(Cl)cc1[N+](=O)[O-])NC1CCCCC1,9.8
O=C(CSc1ncccn1)NCc1cccs1,18.0

# A draw from above in order of number of heavy atoms, low to high:
SMILES,Calb biofilm kill
OCc1ccnc(Cl)c1,17.1
CCOC(=O)c1c(O)cc(C)[nH]c1=O,17.6&16.0
CCC(=O)Nc1nc(-c2ccccc2)ns1,14.8
COc1cc(OC)cc(N2CC(C)(C)C2=O)c1,9.5
Cc1ccccc1N=Nc1c(C)[nH]n(C(N)=S)c1=O,8.1
CC(C)c1nc2sc3c(c2c(=O)n1N)CC(C)(C)OC3,5.7
Cc1ccc(/C=C/C(=O)NCCCc2ccccc2)cc1,16.2
NC(=O)C1(N2CCCCC2)CCN(C2CC(=O)NC2=O)CC1 (centres undefined),12.2
CC1(C)S[C@@H]2[C@H](NC(=O)[C@H](N)c3ccc(O)cc3)C(=O)N2[C@H]1C(=O)O,10.8
COc1ccc(C2=NOC(C)(c3nnc(-c4ccc(F)cc4)o3)C2)cc1 (centres undefined),15.8
O=C(c1ccc(F)cc1F)N1CCCN(c2nc(-c3ccccc3)ns2)CC1,33.3
Cc1cccc(-n2c(Cc3ccccc3)nnc2SCc2ccc([N+](=O)[O-])cc2)c1,13.3
COc1ccc(C(=O)N[C@H](C(=O)OCc2cc(=O)oc3cc(C)ccc23)C(C)C)cc1,-3.8
CCc1nnc(NS(=O)(=O)c2ccc(NC(=O)/C=C/c3ccc(OC)cc3OC)cc2)s1,7.1
N=C1c2ccccc2CN1c1ccc(N2CCOCC2)c(S(=O)(=O)Nc2ccc(Cl)cc2)c1,9.3

# Later entries
SMILES,Calb biofilm kill
CC(=O)/C(=C\N(C)C)Sc1ccc(C)cc1,18.5
Cc1cc2oc(=O)cc(Cn3nnc(-c4ccc(Cl)cc4)n3)c2cc1C(C)C,26.4
O=C(O)c1ccc(N/N=C/C=C/c2ccccc2)cc1,18.8
Cn1c(C(=O)c2ccncc2)cc2ccccc21,22.2
Nc1ccccc1C(=O)NNc1c2ccccc2nc2ccccc12,8.7
COc1ccc(C(=O)CN2C(=O)NC3(CCCCC3)C2=O)cc1OC,9.3
Nc1cc2c(cc1[N+](=O)[O-])OCCOCCOCCO2,7.8
COc1ccc(CNC(=O)C(=O)NCC(c2ccco2)N2CCOCC2)cc1 (centres undefined),24.4
CCOc1ccccc1OCCOCCN1CCN(Cc2ccccc2)CC1,4.0
CCOC(=O)N/N=C(\C)c1ccc(C)c([N+](=O)[O-])c1,13.8
Cc1[nH]n(-c2ccc(Cl)c(Cl)c2)c(=O)c1CCO,-2.9
CC(C)(C)NC(=O)C(=O)NNC(=O)COc1ccc(Br)cc1,13.0
COc1ccc(OCC(O)Cn2c(N)nc3c2c(=O)[nH]c(=O)n3C)cc1 (centres undefined),23.5
CC(C)CC(=O)NC(=S)Nc1ccccc1N1CCCC1,19.0
O=C(Cn1ccc(C(F)(F)F)n1)N/N=C/c1cccs1,10.8
C=CCNC(=S)Nc1ccc(C(N)=O)cc1,11.1
COc1ccc([N+](=O)[O-])cc1NC(=O)C1CCCO1 (centres undefined),10.1
CCNc1nc(SCCOc2ccc(Cl)cc2Cl)nc(N(C)C)n1,12.5
COc1cc2c(cc1C1NC(=S)NC(C)=C1C(=O)N(C)C)CCCC2 (centres undefined),18.4
Oc1ccc(N=C/C=C/c2cccc(Br)c2)cc1-c1nc2ccccc2s1,-2.9
O=C(CCCN1C(=O)/C(=C/c2ccccc2)SC1=S)Nc1ccc(O)cc1,11.5
Cc1ccc(C(=O)O)cc1NC(=O)c1cccs1,-2.6
S=C(N/N=C/c1ccc(Cl)cc1)N1CCOCC1,13.1
C=CCn1c(SCC(=O)NC2CCCCC2)nc2ccccc2c1=O,13.5
COc1ccc(C(=O)NCCCOc2cccc(NC(C)=O)c2)cc1,22.8
CN1/C(=C\C=O)C(C)(C)c2ccccc21,16.4
O=C(NNC(=O)c1cccc([N+](=O)[O-])c1)c1ccncc1,27.5
C=C(C)C1CC=C(C)/C(=N/NC(=O)COc2ccc(Cl)cc2)C1 (centres undefined),5.6
Cc1c(C)c(C)c2[nH]c(=S)[nH]c2c1C,25.7
O=C(CN1C(=O)c2ccccc2S1(=O)=O)Nc1ccccc1C(=O)NCc1ccco1,10.9
COC(=O)c1c(NC(=O)CN2CCC3(O)CCCCC3C2c2cc(OC)ccc2OC)sc(C)c1C (centres undefined),16.4
COc1ccc(/C=C/C(=O)OCC(=O)c2ccc3c(c2)NC(=O)CO3)c(OC)c1,18.0
OC(c1ccccn1)(c1ccccn1)c1ccccn1,0.2
CC1CCN(S(=O)(=O)N2CCC(C(=O)NCCC3=CCCCC3)CC2)CC1,7.0
CCOC(=O)c1c(C)[nH]c(C(=O)COC(=O)CCSc2ccccc2)c1C,18.1
Cc1cccc(-n2nnc3c(=O)n(CC(=O)Nc4cc(C)on4)cnc32)c1,8.1
Nc1ccc(C(=O)NCc2ccccc2)cc1,3.8
COc1ccc(Oc2nc(-c3cccnc3)nc3ccccc23)cc1,7.7
O=C(COc1ncnc2cc([N+](=O)[O-])ccc12)NCCc1ccc(Cl)cc1,15.5
O=c1cc(CS(=O)(=O)c2ccccc2)nc(-c2ccncc2)[nH]1,29.5
CCN(CC)CCCNC(=O)CSc1nc(-c2cccs2)cc(C(F)(F)F)n1,-0.5
COc1ccccc1CNC(=O)c1cccc(C)c1[N+](=O)[O-],19.4
COc1ccc(Br)cc1CN(C)C(C)C(=O)Nc1cccc(C(C)=O)c1 (centres undefined),16.9
CCOC(=O)c1nc(C)sc1-c1ccnn1S(=O)(=O)c1cccc(Cl)c1,8.6
COc1ccc(CCCc2nnc(SCc3nc4ccccc4c(=O)[nH]3)n2C)c(C)c1,13.5
COC(=O)/C=C1/S/C(=N/N=C/c2ccco2)NC1=O,11.0
CCn1c2ccc(F)cc2c2nnc(NN)nc21,16.4
O=C(NC1CCCC1)C1CCCN1C(=O)Oc1ccccc1 (centres undefined),12.9
CCCc1nc2c(c(=O)c3ccccc3n2C)c(=O)n1-c1cc(C)cc(C)c1,12.7
Cc1cc(C(=O)N/N=C/c2ccc(C)o2)c2ccccc2n1,10.6
O=C(CSCc1cc(=O)[nH][nH]1)Nc1ccc(F)cc1,6.2
O=[N+]([O-])c1ccc(S(=O)(=O)CC(CN2CCCCC2)N2CCCCC2)cc1 (centres undefined),-2.6
O=C(COC(=O)/C=C/c1cccs1)Nc1cccc(S(=O)(=O)N2CCOCC2)c1,20.0
Cc1nc(C#N)c(N/N=C/c2c(F)cccc2Cl)o1,10.1
COCCNC(=O)Cn1cc(/C=N/NC(=O)c2ccc(Oc3ccc(O)cc3)cc2)c2ccccc21,10.3
O=C(NC(=S)NC1CCSC1=O)c1cccs1 (centres undefined),8.1
CC1CCN(C(=O)CN(c2cccc(F)c2)S(C)(=O)=O)CC1,11.5
NC(=O)C1(N2CCCCC2)CCN(Cc2ccc(Br)cc2)CC1,25.6
COC(C(=O)Nc1ccc(S(=O)(=O)Nc2ccc(C)c(C)c2)cc1)c1ccccc1 (centres undefined),12.8
O=C(c1cccnc1)N1CCN(C/C=C/c2ccccc2)CC1,9.4
# Continued:
SMILES,Calb biofilm kill
CCOC(=O)C1CCCN(c2c(NCCc3cccc(C)c3)c(=O)c2=O)C1 (centres undefined),25.2
CCCCn1c(N)c(N(CC)C(=O)c2cc(Br)ccc2Cl)c(=O)[nH]c1=O,7.7
O=[N+]([O-])c1ccccc1/C=N/N1CCN(c2ccncc2S(=O)(=O)N2CCCCC2)CC1,-11.7
N#Cc1cc(C(=O)c2cc(Cl)ccc2O)cn(-c2ccccc2)c1=O,13.5
CCOC(=O)C1C(=O)C=C(c2cccs2)CC1c1ccccc1C (centres undefined),5.3
CCOC(=O)c1c(NC(=O)C2COc3ccccc3O2)sc(C)c1C (centres undefined),13.8
C/C(=N\Nc1ccc(F)cc1F)c1ccccc1O,14.3
O=C(N/N=C/c1cc(Br)c(Br)s1)c1ccncc1,9.6
CCc1ccc(C(C(=O)NCCOC)N(C(=O)Cn2nnc3ccccc32)c2cccnc2)cc1 (centres undefined),13.6
Cc1ccc(-c2cc(C(=O)N/N=C/c3c(C)nn(-c4ccccc4)c3C)n[nH]2)s1,9.2
CCc1ccc(-c2csc(NC(=O)COC(=O)CCc3nc4ccccc4s3)n2)cc1,4.8
CSc1ncccc1C(=O)NC1CCCCCC1,10.3
CN(Cc1ccccc1)c1nc(-c2cccc([N+](=O)[O-])c2)nc2ccccc12,11.6
O=c1[nH]c(-c2ccccc2)nc2sc(-c3ccccc3)cc12,-0.8
CC1CCN(C(=O)Cn2cc(SCC(=O)NCC3CCCO3)c3ccccc32)CC1 (centres undefined),7.3
c1coc(C2=Nc3cccc4cccc(c34)N2)c1,19.7
c1ccc(CSc2nnc3c4ccccc4c4ccccc4c3n2)cc1,19.1
Cc1ccc(N(CC(N)=O)C2SC(=O)NC2=O)cc1 (centres undefined),18.6
COc1nc(N(C)C)nc(N(C#N)CCOC(C)=O)n1,9.4
O=C(NNC(=O)NC1CCCCC1)NC1CCCCC1,-9.7
CN1CCN(CCc2cn3ncc(C#N)c3nc2-c2ccc(F)cc2)CC1,15.7
COCCOC(=O)c1c(NC(=O)CN2CCc3ccccc32)sc(C(N)=O)c1C,9.2
COc1cccc(NC(=O)Nc2ccc(Br)cn2)c1,25.0
Cc1nc(NC(=O)/C=C/c2ccccc2)sc1C(=O)NCCO,13.4
CCNc1ccc(C(=O)OC(C(=O)NC(N)=O)C(C)C)cc1[N+](=O)[O-] (centres undefined),10.9
CCOC(=O)C1=NNC2(c3ccc(C)cc3)C(=O)N(c3ccccc3)C(=O)C12 (centres undefined),11.8
CC12CN3CC(C)(CN(C1)C3c1ccc(F)cc1)C2 (centres undefined),-3.0
CCOc1ccccc1N(CC(=O)N/N=C/c1cc(Br)ccc1OC)S(C)(=O)=O,7.5
COc1ccc(-c2ccc(=O)n(Cc3ccc([N+](=O)[O-])cc3)n2)cc1,6.5
COc1ccc(NC(=O)N[C@@H](Cc2ccccc2)C(=O)NN)cc1,12.6
CC(=O)c1ccc(OCc2ccc(C(=O)c3ccccc3)cc2)cc1,14.1
COC1CCN(C(=O)c2ccc(OC3CCN(CCc4ccccc4)CC3)cc2)CC1,5.6
CC(C)CCN(C(=S)Nc1cccc(F)c1)C(C)c1cccs1 (centres undefined),3.1

# Screens: PubChem, PCMD

# The list is partial; count on the stated rates, not on these rows.
